Compound activity from PubChem BioAssay.
LASV entry inh – blocks Lassa virus binding to or entry into cells. 1.2% of 300,000 active. Lassa virus pseudotype entry inhibition, cell reporter; control for the full effect not named in the record. Potency, µM (highest dose often 37.9 µM), inactives show at the top dose activity change, negative = inhibition, usual class: inhibitors. AID 540256; active means well fitted inhibition curve with a large enough effect; inconclusive means small, poorly fitted or top-dose-only effect, or effect the other way; inactive means flat fitted curve, though single readings scatter; tested in HEK293 cells; also: nearly all actives have a fitted effect of over 50% in size; luciferase read-out
MARV entry inh – blocks Marburg virus binding to or entry into cells; Potency, µM (doses to about 37.8 µM), without a hit: at the top dose activity change, negative = inhibition, most hits filed as inhibitors; Marburg virus pseudotyped entry inhibition, cell reporter; control for the full effect not named in the record; about a third of the inactives were read at about 46 µM; AID 540276; 1.8% of 300,000 active; active = well fitted inhibition curve with a large enough effect; inconclusive = small, poorly fitted or top-dose-only effect, or effect the other way; inactive = flat fitted curve, though single readings scatter; tested in HEK293 cells; about a fifth of its hits are not listed in these tables; also: luciferase read-out
* marks the source's active call; other numbers are inactive results; ? = inconclusive; & = joins results of further samples; ! = not confirmed by another sample; [ ] = remark or other dose. % is scaled to controls: 0 for no effect and ±100 for the full control effect; potency is read from the fitted curve at half-maximal effect.

Every second line gives: LASV entry inh | MARV entry inh
CCN(CC)CCNC(=O)c1ccc(NS(C)(=O)=O)cc1
  -6% | 12%
C=CCCC1(C(=O)c2ccccc2)C(=O)C(CC=C(C)C)=C(OC)C(CC=C(C)C)(CCC=C(C)C)C1=O (stereo not drawn)
  ? | -1%[14.2 µM]
CC(CCC(=O)OC[C@H]1O[C@H](C#Cc2ccccc2)C=C[C@H]1Oc1ccc(C)cc1)=NOC[C@@H](O)[C@H]1O[C@@H]2OC(C)(C)O[C@H]2[C@@H]1O
  1%[14.3 µM] | -2%[14.2 µM]
CCOC(=O)NN=C1C[C@@H](O)[C@@H](O)[C@@H]2[C@H]3C(=O)N(CC)C(=O)[C@@H]3CC[C@@H]12
  ? | 8%[14.2 µM]
COC(=O)C1=C(C(=O)OC)[C@@H]2N(C)c3ccccc3[C@@]23C[C@@H](CO)N(C(=O)Nc2ccc(C(F)(F)F)cc2)C3=N1
  ? | ?
O=C(c1ccc(OCCCc2cnc[nH]2)cc1)C1CC1
  ? | ?
N#Cc1cc([N+](=O)[O-])c2sc(C(N)=O)[n+]([O-])c2c1
  ? | -22%
COC(=O)CC=C[C@H](C)[C@H](Cc1ccccc1Br)OC
  ? | ?
Cc1cc([C@@H]2CCCN2C)on1
  -3% | 11%&11%
COc1ccc(-c2nc3c(c4c2C[C@H](c2ccccc2)OC4)CN(S(=O)(=O)c2ccc(Cl)c4nonc24)CC3)c(C)c1
  ? | 1%&1%&1%[14.2 µM]
Cc1ccc(O[C@@H]2[C@H](O)CO[C@H]2C=CC#Cc2ccc(C(C)(C)C)cc2)cc1
  ? | -35%[14.2 µM]
COc1cc2c(c(OC)c1OC)CC(c1ccccc1)=C(c1ccccc1)CC2NC(=O)C(F)(F)F (stereo not drawn)
  ? | 38%[14.2 µM]
C[C@H]1C[C@@H](C)O[C@@]2(C1)C(=O)Nc1ccccc12
  ? | ?
O=C1/C(=C/c2ccsc2)CC/C1=C\c1cccs1
  ? | ?
CC(=O)Nc1ccc(S(=O)(=O)N2CCc3nc(-c4ccccc4)c4c(c3C2)CO[C@@H](C)C4)cc1
  ? | ?
COC(=O)[C@@H]1[C@H](CCc2ccccc2)NC(=O)N(Cc2ccccc2)[C@H]1C
  ? | -24%[14.2 µM]
CCN1C(=NCC(C)C)N[C@H](c2ccccc2)[C@H](C(=O)OC)[C@H]1C
  -14%[14.3 µM] | 8%[14.2 µM]
COC(=O)N[C@H](C(C(=O)OC)=C(C)NCc1ccccc1)c1cccs1
  ? | ?
CCN(CC)CCCN(c1ccccc1)C1Cc2ccccc2C1
  ? | 6.5µM*
CC1=C[C@@H](C)O[C@@]2(C1)C(=O)Nc1cccc(Br)c12
  ? | 1%[14.2 µM]
COC(=O)CC=C[C@@H](C)[C@H](OC)c1ccccc1Br
  ? | 0.6µM*!
COC(=O)C1=C(C)N(Cc2ccccc2)C(=S)NC1c1ccc(Br)cc1 (stereo not drawn)
  ? | -36%[14.2 µM]
Cc1cc(Cn2cnc3c2C[C@@H](C(=O)O)N(C(=O)C(c2ccccc2)c2ccccc2)C3)ccc1N
  3% | ?
CN1CC(O)C(O)C(O)C1CO (stereo not drawn)
  1% | 22%
COc1ccc(O[C@H]2C=C[C@@H](c3ccccc3)O[C@H]2CON=C2c3cc(OC)ccc3O[C@H](c3cccc(OC)c3)[C@H]2O)cc1
  -31%[14.3 µM] | ?
CCc1c(C(=O)NCCc2ccc(N3CCCCC3)cc2)[nH]c2ccc(Cl)cc12
  -33% | -2%
C#CCN1C(=O)[C@]2(OCCC=C[C@H]2C)c2ccccc21
  ? | 43%[14.2 µM]
C[C@@H]1CC2=CCCC2[C@]2(O1)C(=O)N(Cc1ccc(Br)cc1)c1cccc(Br)c12 (stereo partly drawn)
  ? | -25%[14.2 µM]
CC(C)C(=O)N[C@@H]1CCCN1C(=O)C=Cc1ccccc1
  0%[14.3 µM] | -47%[14.2 µM]
COC(=O)C1=C2CCO[C@H]2[C@@H]2[C@@H](C)[C@H](OC)c3ccccc3[C@@H]12
  -6%[14.3 µM] | ?
C=C(C#CCCO)CCN1C=C(C(=O)OCC)C(c2ccccc2)NC1=O (stereo not drawn)
  ? | 2%[14.2 µM]
NC(Cc1ccc(Oc2cc(I)c(O)c(I)c2)c(I)c1)C(=O)O (stereo not drawn)
  ? | ?
CCN1C(=NCc2ccco2)N[C@@H](CCc2ccccc2)[C@H](C(=O)OC)[C@H]1C
  ? | 33%[14.2 µM]
CC(CCC(=O)OC[C@H]1O[C@H](C#Cc2ccccc2)C=C[C@H]1Oc1ccc(C)cc1)=NO[C@H](C)c1cn([C@H](CO)Cc2ccccc2)nn1
  -6%[14.3 µM] | ?
COC(=O)CC=C[C@@H](C)[C@@H](C=NOC[C@H]1O[C@H](c2ccccc2)C=C[C@H]1Oc1ccc(OC)cc1)N[S+](=O)([O-])c1ccc(C)cc1
  ? | 1%[14.2 µM]
CCOC(=O)C1(C(=O)OCC)Cc2ccc(C(C)=O)cc2C1
  ? | -20%[14.2 µM]
COC(=O)CC=C[C@@H](C)[C@@H](C=NO[C@H](C)c1cn([C@H](CO)Cc2ccccc2)nn1)NS(=O)(=O)c1ccc(C)cc1
  ? | 22%[14.2 µM]
C[C@@H](N)[C@@H](O)c1ccc(O)c(O)c1
  ? | 13µM*
CC(CCN1CCCc2nc(C)c(C)cc21)=NOC[C@@H](O)[C@H]1O[C@@H]2OC(C)(C)O[C@H]2[C@@H]1O
  ? | -8%[14.2 µM]
COC(=O)[C@@]1(C=C2c3ccccc3[C@@H](OC)[C@@H]2C)[C@@H]2Oc3ccccc3[C@@H]21
  ? | ?

Reprinted from the part before: two compounds; new compounds follow.
Every second line gives: LASV entry inh | MARV entry inh
CC(CCN1CCCc2nc(C)c(C)cc21)=NOC[C@@H](O)[C@H]1O[C@@H]2OC(C)(C)O[C@H]2[C@@H]1O
  ? | -8%[14.2 µM]
COC(=O)[C@@]1(C=C2c3ccccc3[C@@H](OC)[C@@H]2C)[C@@H]2Oc3ccccc3[C@@H]21
  ? | ?
C=CCOC(=O)N[C@H](c1cccc(OC)c1)[C@H](C)C=CCC(=O)OC
  ? | 15%[14.2 µM]
COc1cc(/C=C(\C#N)C(=O)Nc2nnc(C(F)(F)F)s2)ccc1OCc1ccc(C(F)(F)F)cc1C(F)(F)F
  15µM* | -19%&-19%
Nc1nc(Cl)nc2c1ncn2[C@@H]1O[C@H](COP(=O)(O)OP(=O)(O)OP(=O)(O)O)[C@@H](O)[C@H]1O
  -18% | -26%
C[C@]12C[C@@](C)(C=C1C=Cc1ccc(F)cc1)C(=O)C[C@H]2c1ccc(F)cc1
  ? | 5%[14.2 µM]
COC1=C[C@H](C(=O)NCc2ccccn2)[C@H](C)[C@@H](c2ccccc2)CC1=O
  ? | ?
CCC(C)CN1C(=O)NC(c2ccccc2)C(C(=O)OC)=C1C (stereo not drawn)
  ? | -20%[14.2 µM]
CC[n+]1c(/C=C/C=C2/N(C)c3ccccc3C2(C)C)sc2ccccc21
  1.3µM* | 0.92µM*
O=C(C=Cc1cccc([N+](=O)[O-])c1)c1ccccc1
  ? | -27%[14.2 µM]
COC(=O)CC=C[C@H](C)[C@@H](OCc1ccccc1Br)C(C)C
  ? | 14%[14.2 µM]
CC(CCC(=O)OC[C@H]1O[C@H](C#Cc2ccccc2)C=C[C@H]1Oc1ccc(C)cc1)=NO[C@H](C)c1cn([C@@H]2COC[C@@H]2O)nn1
  ? | ?
c1ccc2c(c1)CCC[C@H]2Nc1nc2ccccc2[nH]1
  ? | -8%
CC(=O)OC[C@H]1O[C@@H](ON=C2C[C@@H](O)[C@@H](O)[C@@H]3[C@H]4C(=O)N(Cc5ccccc5)C(=O)[C@@H]4CC[C@@H]23)[C@H](OC(C)=O)[C@@H](OC(C)=O)[C@H]1OC(C)=O
  ? | -9%[14.2 µM]
CN(CC[C@@H](Oc1ccc(C(F)(F)F)cc1)c1ccccc1)CC(=O)O
  3% | ?
COC(=O)CC1OC1[C@H](C)[C@@H](OC)C(C)C (stereo partly drawn)
  ? | -15%[14.2 µM]
CCCCc1cc2c(cn1)=C(OC(=O)CCC(=O)OC)C(C)(OC(=O)CC)C(=O)C=2 (stereo not drawn)
  ? | 21%&21%[14.2 µM]
C#CCCCON=C1C[C@@H](O)[C@H](O)[C@H]2[C@@H]3C(=O)N(C[C@@H]4CCCO4)C(=O)[C@@H]3CC[C@H]12
  -11%[14.3 µM] | 4%[14.2 µM]
COc1cc2c(cc1OC)[C@@H]1O[C@](CCCCN3C(=O)c4ccccc4C3=O)(C2)OC2=C1C(=O)CCC2
  ? | ?
Cn1c(-c2ccccc2)c(O)c(=O)c2ccccc21
  ? | ?
O=c1cc(-c2ccccc2F)[nH]c2cc3c(cc12)OCO3
  9% | 16%
CC(=O)[C@H]1CC[C@H]2[C@@H]3CC[C@H]4C[C@](C)(O)CC[C@]4(C)[C@H]3CC[C@]12C
  -17% | ?
Nc1ncnc2c1nc(Br)n2C1OC2COP(=O)(O)O[C@@H]2C1O (stereo partly drawn)
  ? | ?
C[C@H](N)Cc1cccc(C(F)(F)F)c1
  19% | -5%
C=CCN=C1NC(c2cccc(C(F)(F)F)c2)C(C(=O)OC)=C(C)N1Cc1ccccc1 (stereo not drawn)
  ? | -25%[14.2 µM]
CCOC(=O)CN1C(=O)[C@@]2(CC(C)=C[C@@H](COCc3ccccc3)O2)c2ccccc21
  ? | 7%[14.2 µM]
C=C(C)C(=O)C=CC=Cc1ccccc1
  ? | -87%[14.2 µM]
CCCNC(=O)N1C2=NC(C(=O)OC)=C(C(=O)OC)[C@@H]3N(C)c4ccc(OC)cc4[C@]23C[C@H]1C(=O)OC
  ? | ?
CCN1C(=O)N(S(=O)(=O)C(F)(F)F)C(c2ccccc2)C(C(=O)OC)=C1C (stereo not drawn)
  ? | -6%[14.2 µM]
C=CCC12C=C(OC)C(=O)C(C1=O)C1c3ccccc3CC12 (stereo not drawn)
  ? | 8%[14.2 µM]
CC(CCN1CCCCc2nc(C)c(C)cc21)=NO[C@@H](C)CN1CCCCc2nc(C)c(C)cc21
  ? | 6%[14.2 µM]
CC(=CCO)CCO
  ? | 2%[14.2 µM]

Reprinted from the entries so far, 19 compounds:
Every second line gives: LASV entry inh | MARV entry inh
CC(=O)OC[C@H]1O[C@@H](ON=C2C[C@@H](O)[C@@H](O)[C@@H]3[C@H]4C(=O)N(Cc5ccccc5)C(=O)[C@@H]4CC[C@@H]23)[C@H](OC(C)=O)[C@@H](OC(C)=O)[C@H]1OC(C)=O
  ? | -9%[14.2 µM]
CN(CC[C@@H](Oc1ccc(C(F)(F)F)cc1)c1ccccc1)CC(=O)O
  3% | ?
COC(=O)CC1OC1[C@H](C)[C@@H](OC)C(C)C (stereo partly drawn)
  ? | -15%[14.2 µM]
CCCCc1cc2c(cn1)=C(OC(=O)CCC(=O)OC)C(C)(OC(=O)CC)C(=O)C=2 (stereo not drawn)
  ? | 21%&21%[14.2 µM]
C#CCCCON=C1C[C@@H](O)[C@H](O)[C@H]2[C@@H]3C(=O)N(C[C@@H]4CCCO4)C(=O)[C@@H]3CC[C@H]12
  -11%[14.3 µM] | 4%[14.2 µM]
COc1cc2c(cc1OC)[C@@H]1O[C@](CCCCN3C(=O)c4ccccc4C3=O)(C2)OC2=C1C(=O)CCC2
  ? | ?
Cn1c(-c2ccccc2)c(O)c(=O)c2ccccc21
  ? | ?
O=c1cc(-c2ccccc2F)[nH]c2cc3c(cc12)OCO3
  9% | 16%
CC(=O)[C@H]1CC[C@H]2[C@@H]3CC[C@H]4C[C@](C)(O)CC[C@]4(C)[C@H]3CC[C@]12C
  -17% | ?
Nc1ncnc2c1nc(Br)n2C1OC2COP(=O)(O)O[C@@H]2C1O (stereo partly drawn)
  ? | ?
C[C@H](N)Cc1cccc(C(F)(F)F)c1
  19% | -5%
C=CCN=C1NC(c2cccc(C(F)(F)F)c2)C(C(=O)OC)=C(C)N1Cc1ccccc1 (stereo not drawn)
  ? | -25%[14.2 µM]
CCOC(=O)CN1C(=O)[C@@]2(CC(C)=C[C@@H](COCc3ccccc3)O2)c2ccccc21
  ? | 7%[14.2 µM]
C=C(C)C(=O)C=CC=Cc1ccccc1
  ? | -87%[14.2 µM]
CCCNC(=O)N1C2=NC(C(=O)OC)=C(C(=O)OC)[C@@H]3N(C)c4ccc(OC)cc4[C@]23C[C@H]1C(=O)OC
  ? | ?
CCN1C(=O)N(S(=O)(=O)C(F)(F)F)C(c2ccccc2)C(C(=O)OC)=C1C (stereo not drawn)
  ? | -6%[14.2 µM]
C=CCC12C=C(OC)C(=O)C(C1=O)C1c3ccccc3CC12 (stereo not drawn)
  ? | 8%[14.2 µM]
CC(CCN1CCCCc2nc(C)c(C)cc21)=NO[C@@H](C)CN1CCCCc2nc(C)c(C)cc21
  ? | 6%[14.2 µM]
CC(=CCO)CCO
  ? | 2%[14.2 µM]

These rows are one share of the data; count on the stated rates, not on these rows.
